# AF4-AF9 inh – blocks AF4 peptide binding to human AF9. inhibition, % at 10 µM. AlphaScreen, biotin-AF4 peptide binding to FLAG-AF9. 0.47% of 350,000 active. P42568;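 active = every replicate reaching a set inhibition limit, whatever the replicate mean, cut at about 25% in these data; inconclusive = mean inhibition reaches that limit but some replicates miss it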;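 note: 0% = plate neutral control median and 100% = total signal loss; the record names both 10 and 1 µM as test concentration; the first replicate is given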
# Target sequence (P42568 whole entry, looked up): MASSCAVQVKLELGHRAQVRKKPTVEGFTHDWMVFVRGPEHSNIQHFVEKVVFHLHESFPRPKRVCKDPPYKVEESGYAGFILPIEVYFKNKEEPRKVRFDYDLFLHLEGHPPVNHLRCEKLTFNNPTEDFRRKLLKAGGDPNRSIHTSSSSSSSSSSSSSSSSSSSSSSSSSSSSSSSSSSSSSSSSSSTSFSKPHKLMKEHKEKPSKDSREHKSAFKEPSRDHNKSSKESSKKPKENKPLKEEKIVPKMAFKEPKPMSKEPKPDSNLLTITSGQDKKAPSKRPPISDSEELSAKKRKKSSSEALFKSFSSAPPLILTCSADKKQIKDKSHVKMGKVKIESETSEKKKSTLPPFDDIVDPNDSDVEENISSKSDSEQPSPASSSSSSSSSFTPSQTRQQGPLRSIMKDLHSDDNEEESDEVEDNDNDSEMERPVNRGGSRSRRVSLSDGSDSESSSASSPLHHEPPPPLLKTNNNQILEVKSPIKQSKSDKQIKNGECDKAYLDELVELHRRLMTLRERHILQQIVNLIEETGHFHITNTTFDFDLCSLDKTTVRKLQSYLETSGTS
# HNF4A DNA FP – change in binding of human HNF4 alpha to DNA | activity change, % at 10 µM | HNF4a-FITC DNA binding, fluorescence polarization, 1 h | 0.3% of 360,000 active | AID 1224865 | P41235; in the data active = activity change above about 30%, passing the limit was not always enough;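 note: controls were the assay level and a saturating level of protein; the project sought stronger binding though the title names inhibitors; some compounds called inactive have numbers as strong as hits; positive values seem to mean higher polarization but the record does not say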
# FGF22 binding – FGF22 (human) thermal shift binding; Q9HCT0; calls only at 9.99 µM; 1.5% of 340,000 active; AID 651658; recombinant FGF22 thermal shift, SYPRO orange fluorescence; percent of sucrose octasulfate shift, DMSO zero;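 active = melting point raised past a set limit in the mean and every replicate; inconclusive = no clear call; three in four hits are not shown here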
# Target sequence (Q9HCT0 whole entry, looked up): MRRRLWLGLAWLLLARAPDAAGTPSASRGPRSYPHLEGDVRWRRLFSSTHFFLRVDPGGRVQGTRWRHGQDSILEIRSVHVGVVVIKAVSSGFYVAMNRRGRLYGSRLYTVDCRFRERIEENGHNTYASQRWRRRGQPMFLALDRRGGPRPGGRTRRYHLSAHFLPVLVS
# Vif A3G – HIV-1 Vif–A3G interaction blockers – biochemical, TR-FRET, GST-Vif 1-94, biotin-A3G peptide, dose response retest, primary screen (AID 1117319). 0.57% of 260,000 active. TR-FRET GST-Vif / biotin-A3G peptide binding; higher % means a stronger effect; test concentration not given here; strong numbers were not always called active. inhibition, %; hits with a dose series show IC50 in µM;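 active = above the screen mean plus three standard deviations and confirmed in dose response; inconclusive = results disagree or hit not tested in dose response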;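 note: Vif residues 1-94 fused to GST binding biotinylated APOBEC3G peptide 110-148; 0% = full assay without inhibitor and 100% = GST in place of GST-Vif; retest series ran down from 100 µM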
# E coli growth – inhibitors of Escherichia coli growth; 0.21% of 330,000 active; OD600 absorbance (concentration not given with the values); OD600, 23 h; stronger effect = lower value;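 active = OD600 absorbance below the run mean of sample wells minus 3.6 SD, in any replicate, cut at about 0.56 in these data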;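 note: stock transfer was 300 nL into about 60 µL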
# ALR H2O2 inh – inhibitors of human sulfhydryl oxidase ALR; P55789; purified ALR, DTT oxidation, H2O2 HRP-luminol luminescence; inhibition, % (test concentration not listed); 3.8% of 290,000 active;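 active = mean and each replicate at 75% or more; inconclusive = only one of the two met; inactive = neither met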;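 note: stock transfer was 7.5 nL into about 7.5 µL; 0% = neutral wells and 100% = wells with inactivated enzyme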
# Target sequence (P55789 whole entry, looked up): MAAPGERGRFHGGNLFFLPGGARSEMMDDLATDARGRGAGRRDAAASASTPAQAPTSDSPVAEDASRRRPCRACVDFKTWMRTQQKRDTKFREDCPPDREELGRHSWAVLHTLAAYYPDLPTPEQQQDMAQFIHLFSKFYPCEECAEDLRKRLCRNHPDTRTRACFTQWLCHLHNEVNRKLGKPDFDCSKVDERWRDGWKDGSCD
# Ecoli rRNA inh – selective bacterial rRNA inhibition in E. coli | GFP signal change (wild-type ribosome), % (concentration not given with the values) | AID 720706 | 1.6% of 350,000 active | E. coli WT GFP vs humanized-ribosome RFP mutants, fluorescence, 24 h; stronger effect = lower value; DMSO median 0, no signal -100;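 active = significant combined selectivity score with lowered wild-type GFP, culture density cut under 30%, mutant RFP and density less affected; inactive = any of these conditions unmet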; note: one replicate is shown; some compounds called inactive have numbers as strong as hits
# Ecoli rRNA inh OD600 – also measured in Ecoli rRNA inh; calls as there; OD600 change, %; measured here: OD600 growth;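 optical density of the mix in the first replicate; 0 = DMSO median and -100 = no signal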
# Ecoli rRNA inh RFP – second read-out of Ecoli rRNA inh, no call of its own (marks repeat the call); RFP signal change, %; measured here: RFP humanized mutant strains;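 first replicate; 0 = DMSO median and -100 = no signal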
# The depositor's hits bear a star; i = inactive; ? = inconclusive; . = not tested or not shown; & = joins results of further samples. The list is partial (hit frequency here may not be typical).
AF4-AF9 inh	HNF4A DNA FP	FGF22 binding	Vif A3G	E coli growth	ALR H2O2 inh	Ecoli rRNA inh	Ecoli rRNA inh OD600	Ecoli rRNA inh RFP	Structure
3.2	.	i	.	.	.	13	3	3.0	COC(=O)[C@]12C[C@H](CC(=O)NCC3CCCCC3)C(=O)N(CCc3ccc(OC)c(OC)c3)C1=C[C@H](C(C)(C)C)O[C@@H]2C
-1.3	2.6	i	-7%	0.67	-1	12	6	-1.5	COCCCNC(=O)c1cc2cc(Br)ccc2oc1=O
-0.4	.	i	.	.	.	-1	1	-1.9	C[C@H](CO)N1C[C@H](C)[C@@H](CN(C)C(=O)NC2CCCC2)Oc2ncc(-c3ccccc3)cc2C1=O
-1.7	-12	i	31%	0.67	.	-3	-3	4.2	Cc1cc(OCC(=O)OCC(=O)N2c3ccccc3NC(=O)C2(C)C)ccc1Cl
-3.6	0.4	i	.	.	.	5	19	0.8	O=C(NCCO)c1ccc(-c2ccc3nncn3c2)cc1
5.1	6.1	i	.	0.7	99*	16	10	18	CC(=O)N1CCN(c2ccc(NCc3ccc(Br)o3)cc2)CC1
.	-0.2	.	?	0.71	0	.	.	.	CCOC(=O)Cn1nc(C)n(-c2ccccc2)c1=O
-1.1	6.5	i	7%	0.76	-66	2	12	-1.8	COc1ccc(OC)c(NC(=O)c2cnc3n(c2=O)CCS3)c1
.	-0.6	.	6%	0.68	-3	.	.	.	Cc1ccc(C2=N/C(=C\N3CCCCC3)C(=O)O2)cc1
0.9	2.0	.	0%	0.68	0	5	12	-1.5	O=C(N=Nc1c(O)[nH]c2ccccc12)c1ccco1
.	-3.1	.	5%	0.68	-12	.	.	.	COc1ccc(CCN2CC(O)=C(c3nc4ccccc4c(=O)[nH]3)C2=N)cc1OC
.	-0.1	.	?	0.72	.	.	.	.	CC(=O)c1ccc(NC2c3ncccc3C(=O)N2Cc2ccc(F)cc2)cc1 (centres undefined)
-0.4	.	i	.	.	.	1	0	-2.2	C[C@@H]1CN([C@@H](C)CO)C(=O)c2cc(NS(=O)(=O)c3cccs3)ccc2O[C@@H](C)CCCCO[C@H]1CN(C)Cc1ccc(C(=O)O)cc1
-4.1	-0.5	i	.	.	66	7	10	1.6	OC[C@H]1O[C@H](OCCc2ccc(O)cc2)[C@H](O)[C@@H](O)[C@@H]1O
2.2	1.5	i	.	0.73	-2	23	6	3.5	CC(C)(C)SCCNC(=O)CN1C(=O)c2cccc3cccc1c23
-31	-0.2	i	?	0.74	-2	8	6	5.7	COc1ccc(S(=O)(=O)N(C(=O)C(C)C)c2ccc3oc(=O)sc3c2)cc1
-2.9	2.3	i	.	.	1	16	10	3.2	CCC1Oc2ccc(C)cc2N(CC(=O)NCCCN2CCCCC2C)C1=O (centres undefined)
-2.7	.	i	.	.	.	3	9	-4.0	CC(=O)N(C)C[C@H]1OCc2ccccc2-c2ccccc2C(=O)N([C@@H](C)CO)C[C@@H]1C
-1.4&-1.1	1.0	i	.	0.74	-5	5&5	-1&10	-3.4&-0.8	COc1ccc(NC(=O)Nc2cccc3c2O[C@@H](CN(C)S(=O)(=O)c2cn(C)cn2)[C@@H](C)CN([C@H](C)CO)C3=O)cc1
1.1	4.3	i	0%	0.71	.	10	15	0.2	CCOC(=O)Nc1ccc2c(CN3CCN(S(=O)(=O)c4ccc(C(C)C)cc4)CC3)cc(=O)oc2c1
-0.2	-1.9	i	4%	0.69	-1	16	21	2.1	O=C(CSc1ccc(-c2cccc([N+](=O)[O-])c2)nn1)NCc1ccccc1
-1.6	-3.3	i	.	0.67	9	-13	-25	-6.3	Cc1cc(NS(=O)(=O)c2ccc(NC(=O)/C=C/c3c(F)cccc3Cl)cc2)nc(C)n1
2.2	2.2	.	-3%	0.66	4	-12	-18	-1.8	CN(c1ccc(OCC(=O)N2CCN(c3ccc(F)cc3)CC2)cc1)S(=O)(=O)c1cccs1
.	-0.2	.	-2%	0.66	-4	9	3	6.7	CCOC(=O)CSc1nnc(Cc2cc(=O)[nH]c(=O)[nH]2)n1-c1cccc(OC)c1
.	-2.2	.	-6%	0.69	50	.	.	.	Cc1ccc2nc(Cc3ccc(N)cc3)oc2c1
5.0	1.9	i	.	0.67	-1	-14	-19	-10	Cc1ccc(NC(=O)c2nc[nH]c2C(=O)N(C)Cc2ccccc2)cc1
1.2	-0.1	i	.	0.7	8	-8	-5	-2.2	NS(=O)(=O)c1cccc(NC(=O)c2ccc(S(=O)(=O)N3CCCCCC3)cc2)c1
.	-1.6	i	.	0.69	2	16	6	6.6	CC1(C)CC(=O)C(N=Nc2cccc(F)c2C#N)=C(O)C1
.	0.1	.	-1%	0.74	1	.	.	.	Cc1cc(C(=O)N2CCC(C(F)(F)F)n3nccc32)on1 (centres undefined)
0.4	.	i	.	.	.	0	2	-2.0	O=C(Nc1ccc2c(c1)[C@H]1C[C@H](CC(=O)N3CCc4ccccc4C3)O[C@@H](CO)[C@H]1O2)C1CCC1

# Shown as comma-separated lines: part of the list above.
canonical_smiles,AF4-AF9 inh,HNF4A DNA FP,FGF22 binding,Vif A3G,E coli growth,ALR H2O2 inh,Ecoli rRNA inh,Ecoli rRNA inh OD600,Ecoli rRNA inh RFP
CCC1Oc2ccc(C)cc2N(CC(=O)NCCCN2CCCCC2C)C1=O (centres undefined),-2.9,2.3,i,.,.,1,16,10,3.2
CC(=O)N(C)C[C@H]1OCc2ccccc2-c2ccccc2C(=O)N([C@@H](C)CO)C[C@@H]1C,-2.7,.,i,.,.,.,3,9,-4.0

# (continued)
AF4-AF9 inh	HNF4A DNA FP	FGF22 binding	Vif A3G	E coli growth	ALR H2O2 inh	Ecoli rRNA inh	Ecoli rRNA inh OD600	Ecoli rRNA inh RFP	Structure
-0.4	3.6	i	-1%	0.66	-4	7	0	-0.9	COc1ccc(N2C(=O)C3CC=C(Cl)CC3C2=O)cc1 (centres undefined)
5.6	3.1	i	-2%	.	-54	.	.	.	COc1cc(/C=N/NC(=O)CC23CC4CC(CC(C4)C2)C3)cc(Br)c1OCC(=O)N(C)C
0.1	3.4	i	5%	0.64	-7	2	8	0.3	Cc1ccc(S(=O)(=O)N(CC(=O)NCC2CCCO2)C2CCCCC2)cc1 (centres undefined)
1.3	2.0	i	-7%	0.7	0	-3	-6	4.1	O=C(c1cc(-c2ccc(Cl)cc2Cl)on1)N1CCOCC1
.	-0.3	.	?	0.72	7	.	.	.	O=C(CCCOc1ccccc1)N1CCCc2ccccc21
.	5.6	.	-3%	0.68	.	.	.	.	CC(=O)Nc1ccc2c(c1)nc(CCN1CCOCC1)n2C
-0.2	.	i	.	.	.	0	6	-3.3	CNC[C@@H]1Oc2ccc(NC(=O)Nc3ccc(OC)cc3)cc2C(=O)N([C@@H](C)CO)C[C@@H]1C
.	-0.9	.	6%	0.69	-16	.	.	.	O=C(CSc1nc(-c2ccccc2)c(-c2ccccc2)o1)Nc1nnc(-c2ccccc2)s1
3.5	.	i	.	.	.	-3	-2	-1.6	COc1ccc2c3c(n(C)c2c1)[C@@H](CO)N(C(C)=O)CC31CCN(C(=O)c2ccccc2)CC1
4.1	0.5	i	-4%	.	.	6	12	1.8	CCOc1ccc(C=NNC(=O)c2cccc3ccccc23)cc1OCC
-3.4	.	i	.	.	.	3	-1	-2.8	CC(C)NC(=O)N(C)C[C@H]1Oc2ccc(NC(=O)Cc3ccccc3)cc2CC(=O)N([C@H](C)CO)C[C@H]1C
0.9	.	i	.	.	.	-1	-9	0.6	C[C@@H]1CN([C@H](C)CO)C(=O)c2cc(NS(=O)(=O)c3cccs3)ccc2O[C@H]1CN(C)Cc1ccc(Oc2ccccc2)cc1
-1.4	2.7	i	15%	0.67	-7	7	5	-2.1	Brc1cccc(CNCCCN2CCOCC2)c1
-0.4	-4.0	i	-5%	0.69	1	22	19	3.3	Cc1c(NC(=O)c2ccc3nsnc3c2)cccc1[N+](=O)[O-]
-1.7	-5.5	i	.	0.68	2	10	22	3.9	Cc1ccc(S(=O)(=O)NC2=NCN(C)CN2)cc1[N+](=O)[O-]
6.9	-0.9	i	1%&-5%	0.75	4	-12	-16	2.1	COc1ccc(-n2c(Cc3cccn3C)nnc2SCC(=O)Nc2ccc(Cl)cc2)cc1
3.8	1.2	i	3%	0.68	0	11	5	0.0	Cc1cc([N+](=O)[O-])nn1CC(=O)NCc1ccco1
6.5	-0.1	i	-1%	0.71	-1	.	.	.	CCC(C)NC(=O)c1cc(OC)c(OC)c(OC)c1 (centres undefined)
.	0.3	.	1%	0.68	12	.	.	.	Cc1ccc(C(=O)NC(=S)Nc2ccc(S(=O)(=O)N3CCN(C)CC3)cc2)cc1
13	1.7	i	.	0.67	53	1	-1	-0.5	COc1ccc(N2CCN(C(C)C(=O)N3CCc4ccccc43)CC2)cc1 (centres undefined)
.	0.4	.	12%	0.7	8	.	.	.	Cn1c(CCN2CCOCC2)nc2cc(NC(=O)COc3ccccc3)ccc21
-6.9	0.9	i	.	0.71	4	12	13	0.0	CC(OC(=O)CCCN=C1NS(=O)(=O)c2ccccc21)C(=O)NC1CCCCC1C (centres undefined)
0.3	39*	i	8%	0.7	16	8	3	-3.8	Nc1nc(SCC(=O)c2cccs2)n[nH]1
.	3.7	.	4%	0.74	-8	.	.	.	COC(=O)c1ccc(NC(=O)N2CCC(O)(c3cccnc3)CC2)cc1
.	-1.2	.	3%	0.7	-10	.	.	.	CCOc1ccc(C(C)(O)CN2CCOCC2)cc1 (centres undefined)
1.1	2.7	i	6%	.	0	17	7	0.1	CC1(C)C2CC=C(/C=N/NC(=S)Nc3cccnc3)C1C2 (centres undefined)
-8.0	-2.5	i	-49%	0.72	-3	7	0	-8.1	O=c1c(Cl)c(NS(=O)(=O)c2ccccc2)cnn1-c1ccccc1
1.2	-2.4	i	-6%	0.67	0	0	8	1.6	CCN(CC(=O)Nc1c(F)cccc1F)C(=O)c1ccc(C(F)(F)F)cc1
-1.1	.	i	.	.	.	0	10	-1.0	COc1ccc(CNC(=O)C[C@H]2C=C[C@@H](NC(=O)c3ccc4c(c3)OCO4)[C@H](CO)O2)cc1
-0.7	-1.1	i	7%	0.65	.	-2	4	-2.3	Cc1ccnc(NC(=O)CNC(=O)c2ccc(C)s2)c1
-0.3	.	i	.	.	.	-1	3	-2.3	C[C@H]1CN([C@@H](C)CO)C(=O)c2cccc(NS(=O)(=O)c3cn(C)cn3)c2O[C@@H]1CN(C)S(=O)(=O)c1cn(C)cn1
.	2.1	.	0%	0.68	10	.	.	.	Cc1nn(Cc2ccc(C(=O)Nc3ccc(C(=O)OC(C)C)cc3)o2)c(C)c1Cl
2.1	1.7	i	5%	0.65	-5	15	9	-2.0	COc1ccc(Nc2nc(NN)nc(C)c2[N+](=O)[O-])cc1
1.2	2.0	.	.	0.71	0	-29	-28	-4.3	CCC(COC)NCc1cn(-c2ccc(OC)cc2)nc1-c1cccc(F)c1 (centres undefined)
2.4	2.3	i	.	.	4	-40	-69	-9.7	O=C(NC(=S)NCc1ccccc1)c1ccc(Br)o1
.	0.9	.	24%	0.72	-3	.	.	.	COc1ccc2cc3cc(C(=O)NCCCN4CCOCC4)oc3nc2c1
-2.8	.	i	.	.	.	6	19	3.9	COCC(=O)N1CC(=O)N2[C@@H](CO)[C@H](c3ccc(C#CC4CC4)cc3)[C@@H]2C1

# Structures shown so far containing a tert-butyl group, in the order listed:
AF4-AF9 inh	HNF4A DNA FP	FGF22 binding	Vif A3G	E coli growth	ALR H2O2 inh	Ecoli rRNA inh	Ecoli rRNA inh OD600	Ecoli rRNA inh RFP	Structure
3.2	.	i	.	.	.	13	3	3.0	COC(=O)[C@]12C[C@H](CC(=O)NCC3CCCCC3)C(=O)N(CCc3ccc(OC)c(OC)c3)C1=C[C@H](C(C)(C)C)O[C@@H]2C
2.2	1.5	i	.	0.73	-2	23	6	3.5	CC(C)(C)SCCNC(=O)CN1C(=O)c2cccc3cccc1c23
